Rango-impB inh: prevents formation of the Rango-importin beta complex | Q14974 | Rango CFP/YFP FRET sensor + importin beta, 45 min | 340,000 compounds, 0.031% hits | Potency, µM (doses to about 92.2 µM), inactives show at the highest dose inhibition of complex formation; active = rising FRET ratio curve, often small or poorly fitted; inconclusive = mostly compound fluorescence or quenching in the first reads; inactive = flat curves in all reads;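 also: potency is read from the fitted curve at half-maximal effect; 0% = DMSO wells and 100% = buffer wells lacking importin beta; nearly all actives have a fitted effect of over 15% in size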
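FRET biosensor (snurportin 1 IBB flanked by EYFP and cerulean), 50 nM, with compound 5 min, then 0.125 microM importin beta in PBS, 1 mM DTT, 0.02% Tween-20, 0.1% BSA. CFP/YFP ratio read after 45 min at room temperature; pre-read flags interference.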
GLA inh pH 4.5: alpha-galactosidase A (human) inhibition, pH 4.5; purified enzyme, 4-MU-alpha-Gal fluorescence, pH 4.5; 230,000 tested, under 10 active; AID 1467; activity change, negative = inhibition, % at 105 µM; P06280; inconclusive = small, poorly fitted or top-dose-only inhibition, or a rising curve; inactive = flat fitted curve, though single readings scatter; no compound was filed as active;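 also: 0% = full activity with enzyme and -100% = basal without enzyme; dose as in the result columns while the protocol names 77 µM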
Target sequence (P06280 whole entry, looked up): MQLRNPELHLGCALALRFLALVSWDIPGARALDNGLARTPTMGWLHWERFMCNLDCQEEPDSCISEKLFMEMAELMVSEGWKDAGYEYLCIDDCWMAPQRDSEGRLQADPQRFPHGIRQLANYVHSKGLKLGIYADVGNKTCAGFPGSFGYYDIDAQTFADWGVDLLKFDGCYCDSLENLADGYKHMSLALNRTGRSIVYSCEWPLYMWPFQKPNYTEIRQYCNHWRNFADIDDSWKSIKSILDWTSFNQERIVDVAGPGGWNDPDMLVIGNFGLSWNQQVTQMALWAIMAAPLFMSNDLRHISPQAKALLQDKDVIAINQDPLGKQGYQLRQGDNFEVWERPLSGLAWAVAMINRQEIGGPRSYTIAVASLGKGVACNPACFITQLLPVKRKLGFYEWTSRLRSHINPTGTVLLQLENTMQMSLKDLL
miR-21 reporter: raises the signal of a miR-21 reporter; HeLa miR-21 FLuc reporter, luciferase, 48 h; Potency, µM (highest dose often 38.3 µM), for inactives: at the highest dose reporter change, positive = more light; 340,000 tested, under 10 active; active = well fitted rising curve with a large enough effect; inconclusive = small, poorly fitted or top-dose-only effect; inactive = no such curve, though single readings can be large or run the other way;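 also: % of control where 0% means no effect; miR-21 action dims this reporter so a rising signal means less miR-21 action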
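Compounds were titrated across several concentrations (up to approximately 40 uM) and incubated 48 hours with HeLa miR-21-FLuc reporter cells (miR-21 target sequence downstream of FLuc, endogenous miR-21). Readout was firefly luciferase luminescence after lytic detection reagent.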
Rango dissoc inh: inhibitors of RanGTP-induced Rango-importin beta complex dissociation. O95149+P62826. Biochemical FRET Rango-importin beta, RanGTP-induced dissociation. Potency, µM (doses to about 46.1 µM), for the others: top-dose activity change, negative = inhibition. 340,000 compounds, 0.071% hits; active means falling FRET ratio curve, often poorly fitted, with flat reads before Ran was added; inconclusive means other falling curves, or compound fluorescence or quenching; inactive means flat or rising ratio curve;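 also: potency is read from the fitted curve at half-maximal effect; % of control where 0% means no effect; nearly all actives have a fitted effect of over 45% in size; -100% = wells without RanGTP and RCC1; the record marks most hits as doubtful in a second field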
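Compounds preincubate 5 min with complex of recombinant Rango and importin beta in PBS with 1 mM DTT. Ran (0.6 uM) loaded with 2 mM GTP plus 0.2 uM RCC1 starts dissociation; FRET is recorded 45 min later.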
An asterisk follows results filed as active; u = inconclusive; x = not tested or not shown; & = joins results of further samples. The list is partial. The share of hits here may be higher or lower than overall.

Assay codes: A = Rango-impB inh; B = GLA inh pH 4.5; C = miR-21 reporter; D = Rango dissoc inh
> O=S(=O)(c1ccccc1Cl)N1CCCC1c1nc(-c2cccc(Cl)c2)no1 (configuration not stated)
  A: 5.0%	B: -4	C: 2%	D: -9%
> CN(C(=O)c1ccccn1)C1(C(=O)NC2CCCCC2)CCCCC1
  A: u	B: -17	C: 1%	D: 26%
> CCC(=O)NNc1ncnc2c1cnn2-c1cccc(C)c1
  A: -0.9%	B: -9	C: 0%	D: -3%
> O=C(O)CCCC(=O)N1N=C(c2c(-c3ccccc3)c3cc(Cl)ccc3[nH]c2=O)CC1c1cccs1 (configuration not stated)
  A: -0.1%	B: -13	C: 9%	D: 0%
> CCCCNC(=O)c1nn2c(C(F)(F)F)cc(-c3ccc(OC)cc3)nc2c1Br
  A: u	B: x	C: -2%	D: -17%
> CC(C)c1nc(SCc2ccccn2)c2c(=O)n(C)c(=O)n(C)c2n1
  A: -6.0%	B: 2	C: 0%	D: 9%
> CC(=O)Nc1ccc(Cl)cc1C1COC(=O)C1=N (configuration not stated)
  A: u	B: -1	C: -2%	D: 0%
> O=C(O)CCNS(=O)(=O)c1ccc2c(c1)OCCCO2
  A: 3.5%	B: -10	C: -1%	D: 2%
> CC(C)C1Oc2ccccc2N(CC(=O)N(C)C2CCCCC2)C1=O (configuration not stated)
  A: 1.5%	B: x	C: -1%	D: 1%
> CCC1S/C(=N/N=C/c2cccs2)NC1=O (configuration not stated)
  A: 2.1%	B: -2	C: -20%	D: 4%

Some of the entries above, reformatted:
Rango-impB inh	GLA inh pH 4.5	miR-21 reporter	Rango dissoc inh	SMILES
2.1%	-2	-20%	4%	CCC1S/C(=N/N=C/c2cccs2)NC1=O (configuration not stated)
-6.0%	2	0%	9%	CC(C)c1nc(SCc2ccccn2)c2c(=O)n(C)c(=O)n(C)c2n1

Other compounds.
Assay codes: A = Rango-impB inh; B = GLA inh pH 4.5; C = miR-21 reporter; D = Rango dissoc inh
> CCn1cc(C(=O)N[C@H](C(=O)NCCCN2CCOCC2)C(C)C)c(=O)c2cc3c(cc21)OCO3
  A: -4.4%	B: x	C: -3%	D: 0%
> COC(=O)COc1ccc(S(=O)(=O)N2CCOCC2)cc1
  A: -2.1%	B: -3	C: 1%	D: -4%
> O=C(Cc1cn2ccsc2n1)OCc1ccccc1
  A: -2.8%	B: -1	C: 0%	D: 37%
> CCC(C(=O)OCC(=O)Nc1cccc(C(C)=O)c1)c1ccccc1 (configuration not stated)
  A: 1.2%	B: -2	C: 1%	D: 21%
> O=C(CSc1nnc(NC(=O)c2c(F)cccc2F)s1)Nc1ccc(F)cc1
  A: 0.6%	B: 7	C: -36%	D: -2%
> CN(C)c1ccc(P(=O)(OCc2ccccc2)C(O)c2ccccc2)cc1 (configuration not stated)
  A: 0.3%	B: -9	C: 3%	D: 16%
> CCOC(=O)c1cnc(SCC(=O)Nc2nnc(CC)s2)nc1N
  A: -0.4%	B: -8	C: -7%	D: -12%
> CCOc1nc(Nc2ccccc2)nc(OCC)n1
  A: -4.2%	B: x	C: 0%	D: 6%
> C=C(C)COc1ccc(-c2n[nH]c(C)c2-c2ccccc2)c(O)c1
  A: -0.1%	B: 5	C: 22%	D: 6%
> CCN1C[C@@H]2[C@@H]3C(=O)N(Cc4ccccc4)C(=O)[C@@H]3[C@](C)(C1=O)N2C(=O)c1ccc(Cl)cc1
  A: 2.8%	B: x	C: x	D: 4%
> O=C(CN1C(=O)CSc2ccc(S(=O)(=O)N3CCCCC3)cc21)NCc1cccnc1
  A: -1.1%	B: 0	C: -11%	D: 12%
> CCC(C)[C@H](NC(=O)NCc1cccc(OC)c1)C(=O)O (some centres not stated)
  A: 0.2%	B: -2	C: -2%	D: -3%
> Cc1noc(C)c1NC(=O)Nc1cccc2c1O[C@@H](CN(C)C)[C@@H](C)CN([C@H](C)CO)C2=O
  A: 2.0%	B: x	C: x	D: 8%
> Cc1ccc2c(c1)C(=O)c1ccccc1CS2=O (configuration not stated)
  A: -1.6%	B: -5	C: -16%	D: -11%
> CC(=O)c1c(C)[nH]c(C(=O)OCC(=O)N(C)C)c1C
  A: -2.1%	B: 9	C: -11%	D: 4%
> Clc1ccc2oc(SCc3cccnc3)nc2c1
  A: 0.4%	B: x	C: -30%	D: -15%
> Cc1ccccc1CSc1nnc(-c2ccccn2)n1N
  A: 2.2%	B: 7	C: -35%	D: -9%
> COc1ccccc1NS(=O)(=O)c1cc(NC(=O)c2cc(=O)[nH]c3ccccc23)ccc1N1CCOCC1
  A: -0.8%	B: 2	C: 0%	D: -14%
> Cc1ccc(OCC(=O)Nc2ccc(S(=O)(=O)Nc3ccccn3)cc2)cc1C
  A: -4.2%	B: -1	C: -3%	D: -12%
> O=C(Cc1cc(=O)[nH][nH]1)N/N=C/c1c(Cl)cccc1Cl
  A: -3.4%&4.3%	B: 13&7	C: -6%&-8%	D: -15%&-3%
> Fc1cccc(C2CCCCN2Cc2nc(C3CC3)no2)c1 (configuration not stated)
  A: 0.4%	B: 2	C: -5%	D: -6%
> CC1CC(C)CN(C(=O)CSc2nnc(-c3ccco3)o2)C1 (configuration not stated)
  A: -0.5%	B: x	C: -5%	D: -15%
> CCOC(=O)c1ccccc1CN1C(=O)c2ccccc2S1(=O)=O
  A: 0.2%	B: x	C: -16%	D: -10%
> Cc1ccc(S(=O)(=O)NC2=NCN(CCOC(=O)c3ccc([N+](=O)[O-])cc3)CN2)cc1
  A: -2.4%	B: -2	C: 1%	D: 3%
> O=C(Nc1ccccc1O)c1ccc(NC(=O)C2CC2)cc1
  A: -2.1%	B: x	C: -96%	D: 1%
> O=C(N/N=C/c1cccc(OC(=O)c2cccc(Br)c2)c1)c1cccnc1
  A: -2.6%	B: x	C: 0%	D: -7%
> CCOC(=O)C1CCCN(C2CC(=O)N(c3ccc(C(C)C)cc3)C2=O)C1 (configuration not stated)
  A: 1.2%	B: 0	C: 0%	D: 5%
> Cc1[nH]c2ccccc2c1/C=C(/C#N)C(=O)NC(C)C
  A: -0.1%	B: -18	C: -21%	D: -5%
> COc1ccc(N2CCN(S(=O)(=O)c3ccc4c(c3)NC(=O)C(C)C(=O)N4)CC2)cc1 (configuration not stated)
  A: -0.5%	B: x	C: 1%	D: 1%
> CCOC(=O)CC1COc2ccccc2N1C(=O)c1cccc([N+](=O)[O-])c1 (configuration not stated)
  A: 6.4%	B: x	C: -6%	D: u
> O=C(N/N=C/c1ccco1)c1cccc(NC(=O)c2ccccc2Cl)c1
  A: -0.2%	B: x	C: -5%	D: 1%
> COCCNC(=O)Cn1c(=O)n(CCCCCC(=O)NCc2ccc3c(c2)OCO3)c(=O)c2sccc21
  A: x	B: 7	C: 0%&1%	D: x
> CSc1cccc(NC(=O)CSc2ccccc2)c1
  A: 0.0%	B: 6	C: -38%	D: -3%
> CC(c1ccccc1)C(NC(=O)OCC1c2ccccc2-c2ccccc21)C(=O)O (configuration not stated)
  A: -2.0%	B: x	C: x	D: -16%
> CN(Cc1ccccc1)C(=O)c1ccc(NC(=O)Cc2cccc(NC(=O)C3CCN(C(=O)C4CCC4)CC3)c2)cc1
  A: -1.2%	B: x	C: x	D: 4%
> S=C(NC1CC2CCC1C2)N1CCN(c2cccc(Cl)c2)CC1 (configuration not stated)
  A: 5.8%	B: 2	C: 1%	D: 20%
> CCN1CCN(CCC(=O)Nc2cccc(OC)c2)CC1
  A: 3.5%	B: 5	C: -6%	D: 6%
> Cc1noc(C)c1C(=O)NC(C)c1ccc2c(c1)OCO2 (configuration not stated)
  A: -1.6%	B: -8	C: 0%	D: 21%
> Cc1ccc(C(NC(=O)c2ccccc2S(C)(=O)=O)c2ccccc2)cc1 (configuration not stated)
  A: -0.6%	B: x	C: 10%	D: -3%
> CCOc1ccc(C(=O)NNC(=O)CN2C(=O)NC3(CCCC3)C2=O)cc1
  A: 0.4%	B: x	C: x	D: 6%

6 of these compounds in a different format:
Structure	Rango-impB inh	GLA inh pH 4.5	miR-21 reporter	Rango dissoc inh
CSc1cccc(NC(=O)CSc2ccccc2)c1	0.0%	6	-38%	-3%
COCCNC(=O)Cn1c(=O)n(CCCCCC(=O)NCc2ccc3c(c2)OCO3)c(=O)c2sccc21	x	7	0%&1%	x
Cc1ccc(C(NC(=O)c2ccccc2S(C)(=O)=O)c2ccccc2)cc1 (configuration not stated)	-0.6%	x	10%	-3%
CCN1CCN(CCC(=O)Nc2cccc(OC)c2)CC1	3.5%	5	-6%	6%
CC(c1ccccc1)C(NC(=O)OCC1c2ccccc2-c2ccccc21)C(=O)O (configuration not stated)	-2.0%	x	x	-16%
O=C(N/N=C/c1ccco1)c1cccc(NC(=O)c2ccccc2Cl)c1	-0.2%	x	-5%	1%

Other structures:
Assay codes: A = Rango-impB inh; B = GLA inh pH 4.5; C = miR-21 reporter; D = Rango dissoc inh
> COc1cccc(C(=O)NC2CCN(CC(=O)NCc3ccccc3OC)CC2)c1
  A: -0.2%	B: -2	C: -7%	D: -3%
> Cc1nc2[nH]c(=O)n(O)c(=O)c2s1
  A: 3.9%	B: x	C: x	D: -8%
> C=CCNC(=O)/C(=C\c1cccc([N+](=O)[O-])c1)NC(=O)c1ccccc1
  A: 2.5%	B: 3	C: 2%	D: 2%
> COc1cc(N2N=C(c3ccccc3)CC2c2ccccc2)c(C=O)cc1C=O (configuration not stated)
  A: u	B: x	C: 3%	D: u
> Cc1cc(C)cc(NC(=O)CSc2nnc(-c3ccccc3Br)o2)c1
  A: -1.6%	B: -10	C: -34%	D: 0%
> O=[N+]([O-])c1cc(S(=O)(=O)NC2=NCCCCC2)ccc1NCC1CCCCC1
  A: 0.9%	B: 2	C: 6%	D: -5%
> N#CC1(NC(=O)CN2C(=O)c3ccc([N+](=O)[O-])cc3C2=O)CCCCC1
  A: 0.0%	B: x	C: x	D: 18%
> COc1ccc(C(=O)COc2ncnc3cc(Cl)ccc23)cc1
  A: -0.1%	B: -4	C: 1%	D: 13%
> CCN(C[C@H]1N[C@@](C)(C(=O)OC)[C@H]2C(=O)N(Cc3ccccc3)C(=O)[C@@H]12)C(=O)c1ccc(F)cc1
  A: 1.7%	B: x	C: x	D: 1%
> COc1cc(/C=N/NC(=O)c2ccc(-c3ccccc3)cc2)cc(OC)c1OC
  A: 0.4%	B: 9	C: 0%	D: 6%
> CCOC(=O)c1cnc2ccc(C(=O)OC)cc2c1NCc1ccco1
  A: x	B: -1	C: 0%	D: x
> N#C/C(=C\c1ccncc1)c1nc2c(s1)CCCC2
  A: u	B: 6	C: -26%	D: -27%
> CC(=O)c1c(NC(=O)c2ccccc2)[nH]c(-c2ccccc2)nc1=S
  A: 2.6%	B: 2	C: 8%	D: 19%
> NC(=O)COC(=O)/C=C/c1ccc2ccccc2n1
  A: -2.5%	B: 6	C: -1%	D: 14%
> CC(C)C(=O)Nc1c(-c2ccccc2)c(=O)c2ccccc2n1C
  A: 1.1%	B: 10	C: 0%	D: 7%
> COc1cc(C=O)ccc1OCc1c(C)noc1C
  A: -1.4%	B: -4	C: -1%	D: 1%
> O=C(C[n+]1ccc(-c2nnc3n2CCC3)cc1)c1ccc(Cl)c(Cl)c1
  A: u	B: 12	C: -1%	D: -14%
> O=C(Nc1ccncc1)Nc1cc(Cl)ccc1Cl
  A: -2.2%	B: x	C: 12%	D: -2%
> Cc1ccccc1N(CC(=O)NCCSCc1ccccc1)S(C)(=O)=O
  A: -3.3%	B: x	C: 1%	D: 2%
> CCNC(=O)CN(c1ccccc1OC)S(=O)(=O)c1cccs1
  A: -0.9%	B: -4	C: 0%	D: 7%
> O=C(CC(NS(=O)(=O)c1ccc(Cl)cc1)c1ccco1)NCc1ccco1 (configuration not stated)
  A: -3.7%	B: -20	C: -1%	D: 12%

High-throughput results as filed in PubChem BioAssay.
